Bioassay records deposited in PubChem BioAssay by National Center for Advancing Translational Sciences (NCATS).
Rango dissoc inh: qHTS Assay for Inhibitors of RanGTP induced Rango (Ran-regulated importin-beta cargo) - Importin beta complex dissociation; Biochemical FRET Rango-importin beta, RanGTP-induced dissociation; Potency, µM (titrated, usually from 46.1 µM), for the others: at the top dose activity change, negative = inhibition; AID 540253, 2011; 0.071% of 340,000 active; Snurportin-1 (Homo sapiens) + GTP-binding nuclear protein Ran (Homo sapiens) + Importin …; active means falling FRET ratio curve, often poorly fitted, with flat reads before Ran was added; inconclusive means other falling curves, or compound fluorescence or quenching; inactive means flat or rising ratio curve;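 further: potency means the concentration at half of the fitted maximal effect; % of control where 0% means no effect; nearly all actives have a fitted effect of over 45% in size; -100% = wells without RanGTP and RCC1; the record marks most hits as doubtful in a second field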
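Rango (0.1 uM)–importin beta (0.25 uM) complex; RanGTP-RCC1 trigger; 45 min RT; CFP/YFP FRET read.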
miR-21 FLuc: qHTS Assay for Modulators of miRNAs and/orActivators of miR-21 | HeLa miR-21 FLuc reporter, luciferase, 48 h | AID 2288, 2010 | Potency, µM (highest dose often 38.3 µM), for inactives: at the top dose reporter change, positive = more light | 340,000 tested, under 10 active; active = well fitted rising curve with a large enough effect; inconclusive = small, poorly fitted or top-dose-only effect; inactive = no such curve, though single readings can be large or run the other way;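 further: % of control where 0% means no effect; miR-21 action dims this reporter so a rising signal means less miR-21 action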
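Using DMEM plus 10% FBS, HeLa miR-21-FLuc cells are incubated with test compounds (final up to about 40uM) for 48 hours; firefly luciferase signal is then imaged following reagent-mediated lysis.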
Rango-impB inh: qHTS Assay for Inhibitors of Rango (Ran-regulated importin-beta cargo) - Importin beta complex formation; Rango CFP/YFP FRET sensor + importin beta, 45 min; Potency, µM (doses to about 92.2 µM), for inactives: top-dose inhibition of complex formation; 0.031% of 340,000 active; AID 540263, 2011; active = rising FRET ratio curve, often small or poorly fitted; inconclusive = mostly compound fluorescence or quenching in the first reads; inactive = flat curves in all reads;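 further: potency means the concentration at half of the fitted maximal effect; 0% = DMSO wells and 100% = buffer wells lacking importin beta; nearly all actives have a fitted effect of over 15% in size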
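FRET biosensor Rango (snurportin 1 IBB between N-terminal EYFP and C-terminal Cerulean), 50 nM in PBS/1 mM DTT/0.02% Tween-20/0.1% BSA, preincubated 5 min RT with compound; 0.125 microM importin beta added, 45 min RT, CFP/YFP FRET ratio read.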
GLA inh pH 4.5: qHTS Assay for Inhibitors of Human alpha-Galactosidase at pH 4.5; Alpha-galactosidase A (Homo sapiens), P06280; purified enzyme, 4-MU-alpha-Gal fluorescence, pH 4.5; activity change, negative = inhibition, % at 105 µM; 230,000 tested, under 10 active; AID 1467, 2008; inconclusive = small, poorly fitted or top-dose-only inhibition, or a rising curve; inactive = flat fitted curve, though single readings scatter; no compound was filed as active;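 further: 0% = full activity with enzyme and -100% = basal without enzyme; dose as in the result columns while the protocol names 77 µM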
Target sequence (P06280 whole entry, looked up): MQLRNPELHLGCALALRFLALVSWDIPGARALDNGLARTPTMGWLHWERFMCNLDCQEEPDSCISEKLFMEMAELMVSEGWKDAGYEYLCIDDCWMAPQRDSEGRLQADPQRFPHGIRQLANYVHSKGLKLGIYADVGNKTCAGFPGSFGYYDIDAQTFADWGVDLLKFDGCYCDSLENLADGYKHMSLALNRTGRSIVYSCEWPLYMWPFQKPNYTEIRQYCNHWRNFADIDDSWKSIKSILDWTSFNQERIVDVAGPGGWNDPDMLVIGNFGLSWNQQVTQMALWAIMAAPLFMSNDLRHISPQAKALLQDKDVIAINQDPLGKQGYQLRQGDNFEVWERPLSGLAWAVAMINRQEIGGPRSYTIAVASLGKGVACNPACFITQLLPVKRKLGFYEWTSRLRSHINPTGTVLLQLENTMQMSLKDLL
* = called active by the depositor; ? = inconclusive; . = no result given; & = joins results of further samples.

SMILES | Rango dissoc inh | miR-21 FLuc | Rango-impB inh | GLA inh pH 4.5
COc1ccc(-n2c(=O)[nH]c3ccccc3c2=O)c(OC)c1 | 3% | 1% | 1.5% | 14
CC1CC2(O)c3nonc3CCC2N1O (stereo not given) | 11% | -4% | -3.1% | -7
C#CCN(C)C(C)Cc1ccccc1 (stereo not given) | -4% | -1% | 0.2% | -1
CC(C)N1C(=O)CC2(CC[N+](C)(CCOC(=O)C(O)(c3ccccc3)c3ccccc3)CC2)C1=O (stereo not given) | 30% | -4% | -2.1% | 3
COc1ccc(CC2NCC(O)C2OC(C)=O)cc1 (stereo not given) | -5% | . | 0.0% | 2
NCCc1c[nH]c2ccc(O)cc12 | 10% | . | -0.6% | -6&0&0
CN1CC[C@]23c4c5ccc(OC6OC(C(=O)O)[C@@H](O)C(O)[C@H]6O)c4OC2C(O)C=CC3[C@H]1C5 (stereo not given in full) | 16% | . | -0.1% | .
CC1CN=C(NCc2ccccc2)S1 (stereo not given) | -14% | -9% | -0.7% | -9
CCC(COC(=O)NC)NC(=O)Oc1ccccc1 (stereo not given) | 2% | -2% | 2.8% | -6
COc1ccc(C(=O)C2CN(C)CC2C(=O)c2ccc(OC)cc2)cc1 (stereo not given) | -19% | -27% | 0.0% | 8
CN(C)CCN(CC1CCCN(Cc2ccccc2F)C1)C(=O)Cc1c(F)cccc1F (stereo not given) | -2% | 2% | 0.0% | .
CCCC[N+]1(C)C2CC(OC(=O)C(CO)c3ccccc3)CC1C1OC12 (stereo not given) | -14% | 4% | -1.6% | 3&-2
CC(C)(C)c1o[nH]c(=O)c1CC(N)C(=O)O (stereo not given) | 4% | . | 1.1% | 0
O=C(Nc1ccccc1)c1cccn(Cc2ccccc2)c1=O | -2% | -12% | 4.0% | 0
COc1ccc2cc1Oc1ccc(cc1)C[C@H]1c3cc(c(OC)cc3CCN1C)Oc1c(OC)c(OC)cc3c1[C@H](C2)N(C)CC3 | 1% | ? | -2.7% | ?
O=C1C2CCN(CC2)C1Cc1ccc(OCCOc2ccccc2)cc1 (stereo not given) | 4% | -3% | -0.7% | -8
CN1CC(Br)C(=O)NC1=O (stereo not given) | 6% | . | -2.0% | .
Clc1cccc(/C=N\Nc2nccs2)c1 | -2% | -55% | -1.2% | 1
COc1cc2c(c(OC)c1O)-c1ccc(OC)c(=O)cc1C(NC(=O)C(F)(F)F)CC2 (stereo not given) | 8% | . | 0.1% | .
COc1ccc(CN2CCCC(C(=O)c3ccccc3SC)C2)cc1O (stereo not given) | -2% | -4% | -0.1% | 4
COC(=O)C1=C(c2ccccc2OCc2ccccc2)C[C@@H]2CC[C@H]1N2C(=O)NCc1ccc([N+](=O)[O-])cc1 | 11% | . | 4.3% | .
CCCCCC[N+](=O)[O-] | -2% | . | 2.6% | .
COc1ccc(CCn2c(O)c(C=NCCCN(C)C)c(=O)[nH]c2=O)cc1OC | 1% | -3% | -2.0% | 2
COC(=O)C1=C(c2ccc(-c3ccccc3)c(F)c2)C[C@@H]2CC[C@H]1N2C(=O)NCc1ccc(F)cc1 | 0% | . | 0.6% | .
Cc1ccc2c(c1)C1CN(C)CCC1N2C(=O)c1cccnc1Cl (stereo not given) | 0% | -1% | -0.2% | 0
COCCN1Cc2cc(=O)n3c([nH]c4ccccc43)c2C1=N | ? | -34% | ? | ?
CN(C)c1ccc(C=C2C(=O)NC(=S)NC2=O)cc1[N+](=O)[O-] | 14% | -5% | -4.4% | ?
Cc1cc(-c2ccccc2)cc(-c2ccccc2)[n+]1CCc1ccccc1 | 2% | . | -1.3% | .
CCC(=O)OC(Cc1ccccc1)(c1ccccc1)[C@H](C)CN(C)C (stereo not given in full) | -9% | . | -1.0% | .
CCC(=NCC1CCCO1)c1c(O)n(-c2ccccc2)c(=O)[nH]c1=O (stereo not given) | 2% | -5% | 2.3% | 8
COc1ccc(SCC2CN(C)CCC2c2ccc(F)cc2)cc1 (stereo not given) | 8% | . | -3.8% | .
CCC1C(c2ccccc2)NC(c2ccccc2)CC1(O)c1ccc(F)cc1 (stereo not given) | 5% | 19% | 1.7% | -5
CCc1ccc(N2C(=O)NC(=O)C(CCc3ccncc3)(CCc3ccncc3)C2=O)cc1 | 11% | -1% | 6.2% | -3
O=C(Cc1ccc([N+](=O)[O-])cc1)N1CCN(Cc2ccc3c(c2)OCO3)CC1 | 0% | -3% | -0.9% | 1
CC(=O)OC1(c2ccccc2)CCN(C)C2CCCCC21 (stereo not given) | -4% | -6% | -0.7% | 1
Cc1cccc(N2CCc3c2nc2ccccc2c3N)c1 | -6%&-14% | 5%&7% | 1.0%&-3.1% | 23&11
Cc1cccc(-n2c(-c3cccs3)nc3ccccc3c2=O)c1 | 2% | -12% | -0.7% | 4
c1coc(CNCCc2c[nH]c3ccccc23)c1 | 8% | -4% | -3.7% | .
CC(C)n1cc(C(=O)N(CC(=O)NC(C)(C)C)Cc2ccccc2)cn1 | -3% | -2% | -1.7% | 3
C=CCn1c(O)c(/C=C/C=Nc2ccccc2)c(=O)[nH]c1=O | ? | 3% | ? | -12
CC(=O)OC[C@]12CCC(C)=C[C@H]1O[C@@H]1[C@H](O)[C@@H](OC(C)=O)[C@@]2(C)[C@]12CO2 | 15% | ? | 1.7% | 0
COC(=O)C1=C(c2cc3ccccc3o2)C[C@@H]2CC[C@H]1N2C(=O)NCc1cccc2ccccc12 | 6% | . | -3.6% | .
CCN(C(=O)CN1CC=C(c2ccccc2)CC1)c1c(N)n(Cc2ccccc2)c(=O)[nH]c1=O | 31% | 2% | 3.6% | 0
c1ccc(CCCN2CCN(CCOC(c3ccccc3)c3ccccc3)CC2)cc1 | -12% | . | 1.3% | -4&-12
CCCCCCn1c(N)c(C(=O)NCCN2CCOCC2)c2nc3ccccc3nc21 | ? | 26% | ? | 11
CCN(c1ccc(C(O)(C(=O)OC)C(F)(F)F)cc1)S(=O)(=O)c1ccc(C)cc1 (stereo not given) | 5% | -5% | 2.0% | -4
CC1CCCN(CC(=O)c2ccc(Cl)c(Cl)c2)C1 (stereo not given) | 1% | -2% | -1.6% | -8
COC(=O)C1=C(c2ccc(F)cc2F)C[C@@H]2CC[C@H]1N2C(=O)NCCOc1ccc(OC)cc1 | 26% | . | 1.2% | .
CCCCN1C(=O)/C(=C/C=C/c2ccco2)C(=O)NC1=S | ? | -3% | ? | 6
COc1ccc(-c2ccc(OC)c(OC)c2OC)cc1 | 17% | . | 2.0% | .
Other records follow:
SMILES | Rango dissoc inh | miR-21 FLuc | Rango-impB inh | GLA inh pH 4.5
CN1CCC(OC(=O)c2cccc(F)c2)CC1 | -19% | -2% | ? | .
CCCC[n+]1cc(/N=C(\[O-])OC)on1 | 0% | 0% | 0.0% | 1
C=CCn1c(O)c(C(C)=NCCc2ccccc2)c(=O)[nH]c1=O | 0% | -2% | -1.0% | -4
O=C(O)COc1ccc(Cl)cc1Cl | 15% | . | -0.7% | 4
O=[N+]([O-])c1ccc(N2CCNCC2)cc1N1CCCCCC1 | 4% | -20% | -0.4% | 7
CN1[C@@H]2CCC[C@H]1CC(=O)C2 | 0% | . | 3.1% | 6
COc1cc(Br)cc(CN2CCN(C)CC2)c1O | 0% | -11% | -2.8% | -4
C/C(=N\NP(=S)(c1ccccc1)c1ccccc1)c1ccc(O)cc1O | -12% | 3% | 0.7% | 4
C=C1[C@@H](C)[C@H]2[C@H](Cc3ccccc3)NC(=O)[C@]23OC(=O)/C=C/[C@H](O)CCC[C@@H](C)C/C=C/[C@H]3[C@@H]1O | -5% | 15% | -0.5% | -9
CCC(=NCCN1CCOCC1)c1c(O)n(-c2ccccc2C)c(=O)[nH]c1=O | -3% | -3% | 1.7% | 9
CN(C(=O)Oc1ccc([N+](=O)[O-])cc1)c1ccccc1 | 1% | -17% | 4.0% | -7
Cc1cc(-c2cc(C)c(N)c(C)c2)cc(C)c1N | 0% | . | -2.0% | .
O=C1NC(=O)C(Cc2ccccc2)(Cc2ccccc2)C(=O)N1Cc1ccccc1 | 5% | . | 0.5% | .
Cc1cccc(-n2c(O)c(C=Nc3ccc(S(N)(=O)=O)cc3)c(=O)[nH]c2=O)c1 | 2% | 3% | -1.2% | 0
Nc1nc(N)c2cnnn2n1 | -1% | . | ? | .
Cc1cc(N(CCCl)CCCl)ccc1C=Cc1ccncn1 | ? | . | ? | .
Cc1[nH]c2ccccc2c1CCN | -7% | . | 0.1% | .
CN1C(=O)N(C)C(=O)C2(Cc3ccccc3N3CCCC32)C1=O (stereo not given) | -26% | -1% | ? | 4
O=C(c1ccc(F)cc1)N1CCC2(CC1)OCCO2 | -4% | 2% | -3.6% | .
COc1ccc(CCNCc2sccc2C)cc1OC | 16% | 2% | -2.0% | 5
CC(=O)Nc1ccc(S(=O)(=O)NC(CC(=O)N2CCC3(CC2)OCCO3)C(C)C)cc1 (stereo not given) | -6% | -9% | -0.4% | 3
COC(=O)C1=C(c2ccc3ccccc3c2)C[C@@H]2CC[C@H]1N2C(=O)NC1CC1 | 1% | . | -1.3% | .
CCCCOc1ccc(CN2CCN(CC)CC2)cc1 | 4% | -31% | -0.6% | -1
OCCNc1c2c(nc3ccccc13)CCCC2 | -8% | -8% | -1.6% | 5
COc1cc(CN=C(C)c2c(O)n(C3CCCCC3)c(=O)[nH]c2=O)cc(OC)c1 | -5% | -8% | 3.0% | -8
O=C1C(=Cc2ccccc2)N2CCC1CC2 | -5% | . | -3.9% | .
Cc1cccc(Cn2cc(C=O)c3ccccc32)c1 | -11% | 13% | 3.1% | .
O=[N+]([O-])c1ccc(CNCCc2ccccc2)cc1 | 1% | -14% | -3.6% | .
CCn1c(O)c(/C=N/NC(=O)c2ccncc2)c(=O)n(CC)c1=S | ? | 1% | ? | 4
CC(Cc1ccccc1)[n+]1cc(/N=C(\[O-])Nc2ccccc2)on1 (stereo not given) | -7% | -26% | -0.7% | -7
C[N+](C)(C)CC#CCN1CCCC1=O | 0% | . | -2.0% | 2&1
O=C(Cn1cnc2ccccc2c1=O)NCCC(=O)N1CCC2(CC1)OCCO2 | -1% | -3% | 1.1% | -9
Cn1c(O)c(C(c2ccccn2)c2c(O)n(C)c(=S)[nH]c2=O)c(=O)[nH]c1=S | 1% | -9% | 12% | 10
CN(C)c1ccc(/C=C2/C(=O)NC(=O)N(Cc3ccco3)C2=O)cc1 | ? | -5% | ? | -3
CC(=O)N1N=C(c2cccnc2)CC1c1ccccc1O (stereo not given) | 7% | 1% | 2.2% | 1
Cc1ccc(Cn2nnnc2CN2CCC(n3nnc4ccccc43)CC2)cc1 | -1% | 8% | -1.4% | 1
COc1ccc2c(c1)CC1(CN2C)C(=O)NC(=O)N(c2ccc(F)cc2)C1=O (stereo not given) | -11% | -4% | ? | -1

The list is partial; the hit share may differ from the screen's.
